PINK1 expr mod – A Quantitative High throughput Screen to Identify Chemical Modulators of PINK1 Expression; PINK1 immunofluorescence, high-content cytometry, 24 h; Potency, µM (top dose mostly 76.6 µM), for inactives: at the top dose activation (PINK1 increase), hits mostly activators; actives 0.2% (n = 410,000); active = well fitted activation curve with a large enough effect; inconclusive = small, poorly fitted or top-dose-only effect; inactive = flat fitted curve, though single readings scatter; cell line not stated here;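 note: potency is the fitted concentration of half-maximal effect; % of control where 0% means no effect; nearly all actives have a fitted effect of over 65% in size; a mitochondrial uncoupler was the plate control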
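Stable cell line, 250 cells/well, 12 h attachment; compounds pinned at 5 concentrations, 24 h; CCCP control. Fixed with nuclear dye, primary antibodies 12 h at 10 degrees C, secondary plus cell stain; laser-scanning cytometer read.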
Six1-Eya2 inh – qHTS Assay for Inhibitors of the Six1/Eya2 Interaction. activity change, % (concentration not given with the values). AlphaScreen GST-Six1/His-Eya2 binding, biochemical; stronger effect = lower value; control for the full effect not named in the record. actives 0.56% (n = 360,000). Homeobox protein SIX1 (Homo sapiens) + Protein phosphatase EYA2 (Homo sapiens), …; in the data active = activity change below about -65%; inconclusive = about -30% to -65%; inactive = above about -30%; note: % is set by controls: 0 for no effect and ±100 for the full control effect
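Six1/Eya2 binding was read as AlphaScreen signal after compounds were pinned into GST-Six1 plus His-tagged Eya2 (5X stock 250/500 nM) in pH 8.0 Tris/NaCl/TCEP buffer, beads added, then incubated 1 h, 37 C, dark.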
D2 potentiator – Beta-Arrestin HTS for Positive Allosteric Modulators of the Human D2 Dopamine Receptor: Potentiators; DiscoveRx D2 beta-arrestin cells, luminescence, 90 min; 100% = 57 uM dopamine signal; potentiation, % (test concentration not listed); actives 0.23% (n = 360,000); AID 624464, 2012; active = potentiation of 50% or more; inconclusive = 30% to 50%; inactive = 30% or less;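 note: compound concentration not given in the record; tested on top of an EC20 dose of dopamine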
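PathHunter D2 cells, attached overnight at 37 deg C, received compound in DMSO plus dopamine at EC20 (50 nM final) for 90 min at 37 deg C. Beta-arrestin recruitment was read as luminescence after 1 h with detection reagent at ambient temperature.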
D2 ag – Beta-Arrestin HTS for Positive Allosteric Modulators of the Human D2 Dopamine Receptor: Agonists; activation, % (concentration not given with the values); actives 0.084% (n = 360,000); DiscoveRx PathHunter D2 beta-arrestin, luminescence, 90 min; 100% = 57 uM dopamine signal; D(2) dopamine receptor (Homo sapiens), P14416; AID 624465, 2012; in the data active = activation above about 40%; inconclusive = about 15% to 40%; inactive = below about 15%; note: compound concentration not given in the record; the text of the record calls up to 30% inactive
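DiscoveRx PathHunter D2 beta-arrestin cells (2,100/well) attached overnight, then compound-stimulated 90 min at 37 C in HBSS/10 mM HEPES/0.1% Tween-20 buffer; beta-galactosidase complementation read by luminescence after 1 h at ambient temperature. Dopamine 57 uM final (EC100) as control.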
TRPV1 PAM – HTS Assay for Compounds that Act as Potentiators of the Vanilloid Receptor 1 | actives 0.02% (n = 320,000) | Transient receptor potential cation channel subfamily V member 1 (Homo sapiens), Q8NER1 | potentiation, % at 8.33 µM | TRPV1-expressing cells, Fluo-8 calcium influx, capsaicin EC20 potentiation; host cell line not named in the record; control for the full effect not named in the record; active means potentiation above 80%; inconclusive means 30% to 80%; inactive means below 30%; note: 0% is about no effect
Target sequence (Q8NER1 whole entry, looked up): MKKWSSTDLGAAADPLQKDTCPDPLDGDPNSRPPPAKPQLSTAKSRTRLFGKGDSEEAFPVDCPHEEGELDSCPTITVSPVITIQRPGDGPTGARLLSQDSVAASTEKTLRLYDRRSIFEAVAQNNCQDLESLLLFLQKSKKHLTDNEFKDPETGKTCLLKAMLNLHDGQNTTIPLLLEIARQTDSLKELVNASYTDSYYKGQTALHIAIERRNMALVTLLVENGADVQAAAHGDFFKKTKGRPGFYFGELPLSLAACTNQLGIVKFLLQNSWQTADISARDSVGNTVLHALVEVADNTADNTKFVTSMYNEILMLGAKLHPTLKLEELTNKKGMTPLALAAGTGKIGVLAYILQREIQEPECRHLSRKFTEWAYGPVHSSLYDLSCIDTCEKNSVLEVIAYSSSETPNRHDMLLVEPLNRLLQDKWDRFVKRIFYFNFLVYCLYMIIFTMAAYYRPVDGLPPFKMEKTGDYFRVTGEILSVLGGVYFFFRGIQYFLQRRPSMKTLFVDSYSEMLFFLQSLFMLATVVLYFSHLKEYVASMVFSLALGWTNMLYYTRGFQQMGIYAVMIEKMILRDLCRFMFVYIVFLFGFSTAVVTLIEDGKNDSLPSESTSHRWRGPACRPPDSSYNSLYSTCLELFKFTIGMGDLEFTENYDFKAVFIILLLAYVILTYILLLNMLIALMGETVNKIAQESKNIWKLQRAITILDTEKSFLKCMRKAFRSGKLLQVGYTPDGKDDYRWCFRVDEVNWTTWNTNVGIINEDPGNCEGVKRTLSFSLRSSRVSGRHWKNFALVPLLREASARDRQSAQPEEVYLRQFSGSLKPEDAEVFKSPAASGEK
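TRPV1-expressing cells were cultured overnight at 35.5C and loaded with Fluo-8 calcium dye for 40 to 90 min at room temperature. After a 10 s baseline, compound was added and calcium influx was read kinetically for 3 min (ex 480/em 520 nm).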
Sfp PPTase inh – qHTS Assay for Inhibitors of Bacillus subtilis Sfp phosphopantetheinyl transferase (PPTase); Biochemical Sfp PPTase activity, qHTS; Potency, µM, for inactives: max response, negative = inhibition, actives largely listed as inhibitors; actives 3.5% (n = 310,000); AID 1490, 2009; active = well fitted inhibition curve with a large enough effect; inconclusive = small, poorly fitted or top-dose-only effect, or another doubt; inactive = no such curve, though single readings can be large or run the other way;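 note: the enzyme is Sfp with the accession as filed and its product quenches rhodamine fluorescence; potency is the fitted concentration of half-maximal effect; 0% = enzyme reaction without inhibitor and -100% = no enzyme wells; top concentration of the series not given in the record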
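Step 1, compound plus 15 nM Sfp-PPTase, 15 min, room temperature. Step 2, add rhodamine-CoA (5 uM) and BHQ-2-YbbR (12.5 uM). Step 3, read 525/598 nm fluorescence at 0 and 30 min.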
CtBP-E1A inh – qHTS Assay for Inhibitors of the CtBP/E1A Interaction. AID 651724, 2012. activity change, % (concentration not given with the values). AlphaScreen GST-E1A/His-CtBP binding, 1536-well; stronger effect = lower value; control for the full effect not named in the record. actives 0.49% (n = 340,000); in the data active means activity change below about -65%; inconclusive means about -30% to -65%; inactive means above about -30%; note: % is set by controls: 0 for no effect and ±100 for the full control effect
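In 5 uL wells, 23 nL compound meets equimolar GST-E1A and His-CtBP (5X stock 125 nM each) for 2 h, 37 °C. Beads (5X, 50 ug/mL) then 1 h, 37 °C, dark.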
Numbers without * were called inactive; ? = inconclusive; . = no result given; & = joins results of further samples; [ ] = dose if it differs, or a comment.

SMILES	PINK1 expr mod	Six1-Eya2 inh	D2 potentiator	D2 ag	TRPV1 PAM	Sfp PPTase inh	CtBP-E1A inh
CC(C)(C)c1ccc(/C=C/C(=O)NCCCn2ccnc2)cc1	0.2%	-16	-3	0.1	-15	10%	-15
O=C(CCCN1C(=O)/C(=C/c2cccs2)SC1=S)Nc1ccc(O)cc1	-2.6%	-15	-7	-2.4	-1	-2%	-23
O=C(Nc1sc2c(c1C(=O)O)CCCCC2)c1ccccc1F	0.0%	-5	-10	-4.6	5	10%	-13
Cc1c(Cl)c([N+](=O)[O-])nn1CC(=O)Nc1c(C)n(C)n(-c2ccccc2)c1=O	-2.2%	2	-12	-1.6	16	14%	4
COc1ccc(C(c2nnnn2Cc2ccccc2)N2CCN(C/C=C/c3ccccc3)CC2)cc1 (stereo not drawn)	2.6%	-28	-13	-0.6	.	.	-26
O=C(COC(=O)c1ccccc1C(=O)c1ccc(Cl)c([N+](=O)[O-])c1)NC1CC1	-1.0%	-8	-5	-3.1	3	4%	0
Cc1ccc2[nH]c(=O)c(C(c3nnnn3CC3CCCO3)N3CCc4ccccc4C3)cc2c1 (stereo not drawn)	1.2%[38.3 µM]	-2	-6	-1.4	22	22µM*	-1
C=CCn1c(C)nnc1SCC(=O)Nc1nccs1	1.4%	1	-7	-2.5	7	8%	4
Cc1cc(OC(=O)CNC(=O)OC(C)(C)C)c2c(C)cc(=O)oc2c1	-2.9%[38.3 µM]	1	-13	-6.5	-1	9%	-8
O=c1[nH]c(-c2ccccc2)nnc1-c1ccccc1	1.1%	14	-2	2.5	20	21%	-21
CCCc1n(CC(O)COCc2ccccc2)c2ccccc2[n+]1C (stereo not drawn)	-0.3%	5	-3	-0.2	-2	6%	0
O=[N+]([O-])c1cccc(-c2nnc3n2CCCCC3)c1	2.1%	5	-1	-1.0	-5	-12%	5
CCN(CC(=O)Nc1c(Cl)cccc1Cl)C(=O)C1CCN(c2ncnc3sc(C)c(C)c23)CC1	-0.4%	?	8	-1.6	5	.	-8
CN(c1ccccc1)S(=O)(=O)c1cccc(C(=O)Nc2nccs2)c1	-2.2%	-7	-34	-6.7	-12	-2%	.
CC(C)C(OC(=O)c1ccccc1)c1nccc2ccccc12 (stereo not drawn)	9.3%	-14	-5	-5.3	13	-2%	0
CC(=O)Oc1ccc(C(=O)Nc2ccc3c(c2)C(=O)N(CCC(=O)O)C3=O)cc1	5.1%[38.3 µM]	-28	16	-1.6	-1	2%	-21
Cc1ccccc1OCCn1c(S(=O)(=O)O)nc2c(N)ncnc21	-1.1%	1	-6	-2.1	1	18%	4
Cc1cccn2c(=O)c(/C=C3\SC(=S)NC3=O)c(NCCCN3CCOCC3)nc12	4.7%	-6	-16	-4.3	17	4µM*	-16
CCOc1ccc(/C=C2\SC(=S)N(CCC(=O)O)C2=O)cc1	0.9%	0	-6	-3.1	-2	8%	-10
CCCc1cc(=O)oc2c(C)c(OCC(=O)NC3CCN(Cc4ccccc4)CC3)ccc12	0.5%	-14	-28	-2.3	-7	15%	-14
Cc1[nH]n(-c2ccccc2)c(=O)c1/C=N/N1C(=O)c2ccc3c4c(ccc(c24)C1=O)CC3	-3.5%	?	2	-0.5	7	10%	-22
COCCCn1c(=O)c2ccccc2n(Cc2cccc(C)c2)c1=O	1.6%	0	1	-0.1	-8	8%	5
COc1ccc(C2SCC(C(=O)O)N2C(C)=O)cc1OC (stereo not drawn)	-1.4%	8	-5	-3.1	-2	-3%	7
Cn1cnnc1SCC(=O)Nc1ccccc1Sc1ccccc1	-0.9%	7	-7	-1.2	14	-5%	1
CC(C)c1ccc(C(CC(=O)c2ccc(Cl)cc2)C(=O)O)cc1 (stereo not drawn)	-2.3%	-2	4	-5.3	.	11%	7
Next part.
SMILES	PINK1 expr mod	Six1-Eya2 inh	D2 potentiator	D2 ag	TRPV1 PAM	Sfp PPTase inh	CtBP-E1A inh
O=C(NCCc1c[nH]c2ccccc12)c1cc([N+](=O)[O-])cc([N+](=O)[O-])c1	6.3%	-10	2	12	-6	1%	6
O=C(OCC(=O)N(Cc1ccccc1)Cc1ccccc1)c1cccc(O)c1	6.2%	0	-7	-3.1	-2	.	0
Nc1nc(C2CCCN2S(=O)(=O)c2ccc(Cl)cc2)cs1 (stereo not drawn)	-1.3%	-3	17	-0.7	-4	10%	2
Cc1cc(C(F)(F)F)nc(-n2cc(-c3cccc(N)c3)nn2)n1	5.3%	0	-2	1.9	-6	5%	5
COc1cccc(Nc2nc(C(N)Cc3ccc(F)cc3)cs2)n1 (stereo not drawn)	-0.8%	-11	-9	5.2	.	.	-25
Cc1sc2nc(-c3ccccn3)[nH]c(=O)c2c1-c1ccccc1	3.9%	?	-8	1.7	-18	18µM*	-83*
Cc1cc(NC(=O)c2cc(-c3ccc4c(c3)OCO4)on2)n(-c2ccccc2)n1	0.1%[38.3 µM]	-2	-2	2.9	-20	15%	-11
CN(C)c1ccc(C#Cc2ccc3cc(CCCO)oc(=O)c3c2)cc1	7.1%	-1	-3	-2.9	14	.	.
COc1ccccc1CCNC(=O)Cn1ccc2cc(S(=O)(=O)N3CCCC3)ccc21	2.6%	3	-21	2.9	-8	-9%	4
Clc1ccc(C2Nc3cccc4cccc(c34)N2)cc1	-0.6%	-3	4	?	?	?	0
COc1ccc(OC)c(S(=O)(=O)NCC(=O)NC2CCCCCC2)c1	1.5%	7	-5	-2.9	-4	.	12
CCN(CC(=O)Nc1ccc2c(c1)OCCO2)C(=O)c1ccc(Cl)cc1Cl	2.3%	3	-11	-3.1	7	.	-15
COc1ccc(CN2CCC(C(=O)N3CCCC(C)C3)CC2)cc1OC (stereo not drawn)	0.4%	3	-3	-5.7	6	4%	2
CCCN(CCC)S(=O)(=O)c1ccc(C(=O)N2CCOCC2)cc1	?	2	-5	1.3	2	12%	1
Cc1nn(CC(=O)O)c(=O)c2ccccc12	-2.9%	4	-10	-2.0	?	9%	-2
CCc1ccc(/C(C)=N\Nc2ccc([N+](=O)[O-])cc2)cc1	7.4%	7	7	-1.3	0	-1%	6
COCCNC(=O)C(c1ccc(C)cc1)N(Cc1ccccc1)C(=O)CCC(=O)Nc1ccccn1 (stereo not drawn)	0.2%	3	-10	-1.9	6	13%	8
CCn1cc(/C=C(\NC(=O)c2ccc(C)cc2)C(=O)NCCCN2CCOCC2)c2ccccc21	1.0%	9	-20	-4.2	13	4%	10
CC1(C)OC(=O)N(NCc2ccccc2)C1(C)O (stereo not drawn)	1.3%	7	-5	-8.5	1	9%	0
O=C(O)c1cc(Cl)c(Cl)cc1C(=O)Nc1cccc2ncccc12	-0.4%	2	2	1.1	-8	-4%	2
C/C(=N\NC(=O)c1ccc(Cl)c(Cl)c1)c1cccc(NC(=O)C(C)C)c1	0.5%	0	-12	-6.0	?	11%	5
COc1ccc(CCNC(=O)CCS(=O)(=O)c2ccc3nc(C)sc3c2)cc1OC	1.0%	-7	-5	-4.9	-10	16%	-6
COc1ccc(CNC(=O)c2cc(-c3ccncc3)nc3c(C)cc(C)cc23)cc1OC	4.6%	-24	-12	1.9	6	?	7
CS(=O)(=O)N(CC(=O)N1CCCCCC1)c1cccc(Cl)c1Cl	2.8%	-1	1	-0.2	-12	24%	.
O=C(COC(=O)COc1cccc(C(F)(F)F)c1)NC(=O)NC1CCCCC1	8.2%	2	-13	-2.2	-17	.	-20
Additional records:
SMILES	PINK1 expr mod	Six1-Eya2 inh	D2 potentiator	D2 ag	TRPV1 PAM	Sfp PPTase inh	CtBP-E1A inh
Cn1cccc1C(=O)NCc1ccc(S(N)(=O)=O)cc1	0.6%	5	4	-2.6	-2	11%	6
Clc1cccc(Cl)c1CSc1nnc(-c2ccncc2)s1	9.9%	-1	-4	4.4	1	-20%	6
COc1ccc(COC(=O)CN2C(=O)NC3(CCCC3)C2=O)cc1F	0.4%	2	0	0.3	-18	.	-11
CC(=O)Nc1ccc(-c2csc(NC=C3C(=O)OC(C)(C)OC3=O)n2)cc1	2.6%	1	-5	-3.5	-1	-2%	.
O=C(CNC(=O)c1ccc(-c2ccccc2)cc1)OCc1c(F)cccc1Cl	8.1%	3	-1	0.1	4	18%	2
O=C(CSc1nnc(CNC(=O)c2ccc(F)cc2)o1)Nc1ccc2c(c1)OCCO2	0.7%	-17	-16	-2.7	-9	-2%	1
CCCOc1ccc(NC(=O)C(=O)NCCCn2ccnc2)cc1	-1.0%	2	11	2.5	-2	6%	3
CC(=O)NC(=S)Nc1ccccc1N1CCCCC1	1.7%	-10	-6	-6.4	0	-18%	-7
Cc1noc(NS(=O)(=O)c2ccc(NC(=O)C(C)(C)C)cc2)c1C	-1.1%	9	-3	3.7	4	14%	-2
Cc1cccc(NS(=O)(=O)c2cccc(C(=O)N3CCN(c4ccccn4)CC3)c2)c1	-1.2%	20	0	-3.5	6	-7%	0
N#C/C(=N\Nc1ccc(Cl)c(Cl)c1)C(=O)C1CC1	?	-10	-2	-4.7	-13	-14%	-7
Cc1ccc(-c2n[nH]c(=S)n2C)cc1	0.9%	-8	-16	-3.0	-1	-11%	-3
O=C(CC(NC(=O)c1ccccc1Cl)c1ccccc1)Nc1ccc2c(c1)OCO2 (stereo not drawn)	0.9%	4	-4	-3.5	5	0%	8
Cc1cccc(CCN2C(N(C)C)=NC[C@@H]2Cc2ccccc2)c1	-0.6%	39	-16	-2.0	.	.	-25
COc1ccc(C)cc1NC(=O)CN(C)S(=O)(=O)c1ccc2c(c1)CCCN2C(C)=O	-0.6%&-2.3%	1	-1	0.5	-1	24%	3

Given with two lines to a compound: part of the list above
Every second line gives: PINK1 expr mod, Six1-Eya2 inh, D2 potentiator, D2 ag, TRPV1 PAM, Sfp PPTase inh, CtBP-E1A inh
O=C(CNC(=O)c1ccc(-c2ccccc2)cc1)OCc1c(F)cccc1Cl
→ 8.1%, 3, -1, 0.1, 4, 18%, 2
O=C(CSc1nnc(CNC(=O)c2ccc(F)cc2)o1)Nc1ccc2c(c1)OCCO2
→ 0.7%, -17, -16, -2.7, -9, -2%, 1
CCCOc1ccc(NC(=O)C(=O)NCCCn2ccnc2)cc1
→ -1.0%, 2, 11, 2.5, -2, 6%, 3
CC(=O)NC(=S)Nc1ccccc1N1CCCCC1
→ 1.7%, -10, -6, -6.4, 0, -18%, -7
